gsp antag = qHTS for Antagonists of gsp, the Etiologic Mutation Responsible for Fibrous Dysplasia/McCune-Albright Syndrome: qHTS. gsp-mutant cells, cAMP HTRF, 30 min; control for the full effect not named in the record. Potency, µM (titrated, usually from 76.9 µM), inactives show top-dose activity change, negative = inhibition, usual class: inhibitors. 340,000 tested, 0.4% active. AID 624288, 2012; active = falling curve of any shape with a large fitted effect; inconclusive = falling curve, mostly with a smaller effect; inactive = flat or rising curve; cell line not stated here;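 note: intracellular cAMP measured with PDE inhibitor Ro 20-1724 present during compound exposure; potency is the fitted concentration of half-maximal effect; % is set by controls: 0 for no effect and ±100 for the full control effect; nearly all actives have a fitted effect of over 65% in size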
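Cells in G418 medium, seeded 16-24 h, 37C; buffer exchange to DPBS + 1 mM CaCl2, 0.5 mM MgCl2, 0.05% BSA; cpds in DMSO + […] (300 uM stock), 30 min 37C; HTRF cAMP detection.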
CtBP-E1A blk = qHTS Assay for Inhibitors of the CtBP/E1A Interaction; AlphaScreen GST-E1A/His-CtBP binding, 1536-well; active compounds read low; control for the full effect not named in the record; 340,000 tested, 0.49% active; AID 651724, 2012; CtBP / adenovirus E1A interaction (AlphaScreen); activity change, % (test concentration not listed); in the data active means activity change below about -65%; inconclusive means about -30% to -65%; inactive means above about -30%; note: % is set by controls: 0 for no effect and ±100 for the full control effect
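Homogeneous bead-based format: GST-tagged E1A captured on glutathione donor beads, His-tagged CtBP on nickel acceptor beads; compounds precede bead addition by 2 h at 37 °C.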
Six1-Eya2 blk = qHTS Assay for Inhibitors of the Six1/Eya2 Interaction. Homeobox protein SIX1 (Homo sapiens) + Protein phosphatase EYA2 (Homo sapiens), …. AlphaScreen GST-Six1/His-Eya2 binding, biochemical; active compounds read low; control for the full effect not named in the record. activity change, % (concentration not given with the values). 360,000 tested, 0.56% active. AID 651725, 2012; in the data active = activity change below about -65%; inconclusive = about -30% to -65%; inactive = above about -30%; note: % is set by controls: 0 for no effect and ±100 for the full control effect
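Compounds are tested against tagged Six1 and Eya2 proteins bridged by glutathione donor and nickel acceptor beads; after a one-hour incubation at 37 °C without light, AlphaScreen emission is recorded.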
D2 PAM = Beta-Arrestin HTS for Positive Allosteric Modulators of the Human D2 Dopamine Receptor: Potentiators; DiscoveRx D2 beta-arrestin cells, luminescence, 90 min; 100% = 57 uM dopamine signal; potentiation, % (no concentration beside the values); 360,000 tested, 0.23% active; AID 624464, 2012; active = potentiation of 50% or more; inconclusive = 30% to 50%; inactive = 30% or less;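 note: compound concentration not given in the record; tested on top of an EC20 dose of dopamine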
Target sequence (P14416 whole entry, looked up): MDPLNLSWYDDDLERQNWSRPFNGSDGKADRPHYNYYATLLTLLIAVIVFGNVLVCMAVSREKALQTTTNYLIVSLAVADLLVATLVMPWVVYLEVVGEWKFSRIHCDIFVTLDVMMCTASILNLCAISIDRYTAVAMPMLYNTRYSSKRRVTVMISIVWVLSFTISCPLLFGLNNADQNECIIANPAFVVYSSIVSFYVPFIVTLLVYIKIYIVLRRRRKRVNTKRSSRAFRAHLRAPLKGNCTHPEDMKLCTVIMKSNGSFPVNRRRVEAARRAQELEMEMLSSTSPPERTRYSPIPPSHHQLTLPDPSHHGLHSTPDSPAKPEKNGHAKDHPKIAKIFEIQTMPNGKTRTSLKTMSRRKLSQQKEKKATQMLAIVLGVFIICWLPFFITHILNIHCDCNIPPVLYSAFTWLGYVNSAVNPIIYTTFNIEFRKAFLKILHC
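D2 cells co-treated with compound plus 50 nM dopamine (EC20) for 90 min at 37 deg C to detect potentiation. Beta-arrestin recruitment was read as enzyme-fragment luminescence after 1 h at ambient temperature. Full response was set by 57 uM dopamine.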
D2 ag = Beta-Arrestin HTS for Positive Allosteric Modulators of the Human D2 Dopamine Receptor: Agonists. D(2) dopamine receptor (Homo sapiens), P14416. DiscoveRx PathHunter D2 beta-arrestin, luminescence, 90 min; 100% = 57 uM dopamine signal. activation, % (test concentration not listed). 360,000 tested, 0.084% active; in the data active = activation above about 40%; inconclusive = about 15% to 40%; inactive = below about 15%; note: compound concentration not given in the record; the text of the record calls up to 30% inactive
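Agonist mode: compounds alone added to overnight-plated D2 PathHunter cells for 90 min at 37 C, with 57 uM final dopamine (EC100) defining full response. Beta-arrestin recruitment detected by chemiluminescent reagent, read after 1 h at ambient temperature.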
gsp ag = qHTS for Agonist of gsp, the Etiologic Mutation Responsible for Fibrous Dysplasia/McCune-Albright Syndrome: qHTS. Potency, µM (doses to about 76.9 µM), for the others: at the highest dose activation (cAMP increase), actives largely listed as activators. gsp mutant cells, cAMP HTRF, 30 min; control for the full effect not named in the record. 340,000 tested, 0.13% active; active = well fitted activation curve with a large enough effect; inconclusive = small, poorly fitted or top-dose-only effect, or another doubt; inactive = no such curve, though single readings can be large or run the other way; cell line not stated here;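 note: phosphodiesterase inhibitor Ro 20-1724 added with compounds to block cAMP breakdown; potency is the fitted concentration of half-maximal effect; nearly all actives have a fitted effect of over 60% in size; about a fifth of the inactives were tested at one dose only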
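Cells in DMEM/10% FBS with G418 were pretreated with compounds in DMSO plus […] (300 uM stock) for 30 min at 37C. cAMP was measured by HTRF (cAMP-d2 plus anti-cAMP antibody-K) after 30 min at room temperature.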
Starred values were filed as active, the others as inactive; ? = inconclusive; . = no result given; [ ] = dose if it differs, or a comment.

entry	Compound	gsp antag	CtBP-E1A blk	Six1-Eya2 blk	D2 PAM	D2 ag	gsp ag
1	Cc1ccccc1OCC(O)CN1CCN(c2ccc(Cl)cc2)CC1 (stereo not drawn)	6%	.	-17	6	-6.1	-24%
2	COc1ccccc1-n1c(SCC(=O)Nc2ccc(C)cc2)nc(O)cc1=O	1%	-7	-5	-5	-3.9	4%
3	Cc1ncc(CO)c2c1Oc1nc(-c3ccccc3)nc(SCC(=O)Nc3cccc(O)c3)c1C2	?	.	-15	17	11	-13%
4	CCn1c(=O)c(C(=O)NCCc2ccc(Cl)cc2)c(O)c2ccccc21	3%	0	9	-8	-4.8	-12%
5	O=C(CSc1nnc(CN2CCOCC2)n1-c1ccccc1)N1CCc2ccccc21	-8%	4	-3	2	-2.0	?
6	COc1cc(NC(=O)COC(=O)c2ccccc2F)cc(OC)c1	9%	-4	0	-3	-4.7	5%[15.4 µM]
7	CCSc1nc2c(cnn2-c2ccc(C)c(C)c2)c(=O)[nH]1	5%	2	1	-3	-4.6	-36%[inhibitor]
8	CCCNC(=O)c1c(N)n(-c2cccc(OC)c2)c2nc3ccccc3nc12	?	10	16	5	-0.6	25%
9	Cc1cc(-c2nnc(SCC(=O)Nc3ccccc3C(F)(F)F)o2)c(C)n1-c1ccccc1	4%	1	-2	-4	-1.2	-42%[inhibitor]
10	CC(C)N(CCO)Cc1nc(C(c2ccccc2)c2ccccc2)no1	-4%	-7	2	10	-1.3	-11%[15.4 µM]
11	CCn1c(C)nc2cc(C(=O)NN=Cc3ccc([N+](=O)[O-])cc3)ccc21	5%	8	4	2	-5.0	-4%
12	Cc1ccc(N=Cc2c(O)n(-c3ccc4c(c3)OCO4)c(=O)c3ccccc23)cc1	-9%	-1	-1	1	-4.2	-12%
13	COC(=O)c1c(SCC(=O)Nc2ccc(C)cc2)nc(=O)[nH]c1C	-6%	4	-1	-2	-2.4	32%[15.4 µM]
14	O=C1CC(c2ccccc2Cl)=NN(c2ncnc3ccccc23)C1=O	-13%	-3	-12	-10	-3.7	6%[15.4 µM]
15	Cc1ccc(N)c(C(O)(C(F)(F)F)C(F)(F)F)c1	7%	0	-4	-5	-3.8	-1%
16	Cc1noc(C)c1C(=O)Nc1nc(-c2ccc(F)cc2)cs1	?	1	0	-8	-1.5	4%
17	COc1ccc(CC(NC(C)=O)C(=O)NC2CCN(S(=O)(=O)c3ccc(NC(C)=O)cc3)CC2)c(OC)c1 (stereo not drawn)	8%	-16	-8	1	0.2	27%
18	COc1ccc(CCNC(=O)CN2C(=O)NC3(CCOc4ccccc43)C2=O)cc1 (stereo not drawn)	4%	-1	5	5	-5.5	13%[15.4 µM]
19	COc1ccc(OCc2cc(C(=O)NCc3nc(C)cs3)no2)c(Cl)c1	?	6	-1	-35	-3.2	?
20	O=C(c1ccccc1)c1ccc2c(c1)OCCCO2	-2%	13	13	2	3.0	20%

2 of the compounds above, with two lines to a compound.
The line under a structure holds: gsp antag	CtBP-E1A blk	Six1-Eya2 blk	D2 PAM	D2 ag	gsp ag
16	Cc1noc(C)c1C(=O)Nc1nc(-c2ccc(F)cc2)cs1
    ?	1	0	-8	-1.5	4%
19	COc1ccc(OCc2cc(C(=O)NCc3nc(C)cs3)no2)c(Cl)c1
    ?	6	-1	-35	-3.2	?

Further compounds follow:
entry	Compound	gsp antag	CtBP-E1A blk	Six1-Eya2 blk	D2 PAM	D2 ag	gsp ag
21	CN(C)c1ccc(NC(=O)CN2CCN(S(=O)(=O)c3cc(Cl)ccc3Cl)CC2)cc1	5%[15.4 µM]	-22	-26	6	-3.6	9%
22	CCCn1c(=O)c(C(=O)NCC2CCCO2)c(O)c2ccccc21 (stereo not drawn)	3%	11	6	2	0.5	?
23	CCC(=O)c1cn(CC(=O)Nc2cc(C)ccc2C)c2ccccc12	5%	.	0	0	0.6	-23%
24	CCOC(=O)CC1Sc2ccccc2NC1=S (stereo not drawn)	12%	4	-3	-5	-0.7	8%[15.4 µM]
25	CC1(C2CC(=O)c3c(O)ccc(O)c3C2)OCCO1 (stereo not drawn)	.	-20	0	-9	-2.2	?
26	NC(=O)c1ccc(C(=O)N/N=C(/Cc2ccccc2)c2ccccc2)cc1	-7%	18	10	-18	-3.5	-6%[15.4 µM]
27	COc1ccc(/C(C)=N/OC/C(O)=C(\C#N)c2nc3ccccc3[nH]2)cc1OC	7%	.	7	-5	-1.4	1%[15.4 µM]
28	C=CCNC(=S)N1CCN(S(=O)(=O)c2ccc(C)cc2)CC1	5%	0	0	-13	-1.7	-36%[inhibitor]
29	COc1cccc(CN(C)CC(=O)N2CCN(S(=O)(=O)c3ccccc3)CC2)c1	.	3	-4	-6	-4.5	-28%
30	CCc1ccccc1NC(=O)COC(=O)C1C2CC3OC(=O)C1C3C2 (stereo not drawn)	1%	6	0	1	-1.4	-19%
31	Cc1cc(C)nc(Nc2nc(C(N)CCc3ccccc3)cs2)n1 (stereo not drawn)	.	-25	-21	-12	-1.9	.
32	COC(=O)c1ccccc1NC(=O)NCc1ccncc1	-15%	.	1	-4	-4.6	-1%
33	CC1(C)Oc2ccc(NC(=O)C3COc4ccccc4O3)cc2O1 (stereo not drawn)	-8%	-18	-15	11	-2.4	-57%
34	COc1ccc2cc(/C=N/O)c(Cl)nc2c1	9%	-15	-8	-30	0.2	-2%[15.4 µM]
35	O=C(COc1ccccc1Cl)NCC(c1cccs1)N1CCOCC1 (stereo not drawn)	-2%	5	3	-7	1.1	20%[15.4 µM]
36	CN(C(=O)COC(=O)C12CC3CC(CC(Cl)(C3)C1)C2)c1ccccc1	-18%	10	1	-21	-1.4	-22%[15.4 µM]
37	CC(C)COC(=O)Nc1nnc(Cc2ccccc2)s1	4%	-4	0	-4	1.7	-12%[15.4 µM]
38	O=C(CC1CCCCC1)NCCOc1ccccc1	24%	12	1	-1	-5.2	0%[15.4 µM]
39	Nc1cc(CN2C(=O)c3ccccc3C2=O)cc(Cl)c1O	-11%	47	6	29	6.8	-31%[inhibitor]
40	CCCCc1nnc(NC(=O)c2ccccc2OCc2c(C)noc2C)s1	-6%	0	-3	-2	-0.8	-12%
41	Cc1ccc(S(=O)(=O)NCCC(=O)NC2CCCCC2C)cc1 (stereo not drawn)	11%	6	5	-1	-2.1	?
42	CCCCn1c(N)c(N(CC(C)C)C(=O)c2cc(S(=O)(=O)N3CCCCC3)ccc2C)c(=O)[nH]c1=O	4%	-1	7	-10	-0.3	-15%[15.4 µM]
43	CCOC(=O)c1sc(N2N=C(C)C(N=Nc3cccc(C)c3)C2=O)nc1C (stereo not drawn)	-7%	-27	-13	-1	-6.5	-22%
44	C=CCN1C(c2ccc(Br)cc2)=CS/C1=C(\C#N)c1nnc(N2CCOCC2)n1-c1ccccc1	-15%	-16	-21	-9	0.9	18%
45	O=C(NCc1ccco1)C1CCCN(c2ncnc3c2nc2n3CCCCC2)C1 (stereo not drawn)	-5%	2	-13	6	1.4	?
46	COc1cc(CNC(C)C23CC4CC(CC(C4)C2)C3)ccc1OCC(=O)NC(C)(C)C (stereo not drawn)	12%	-4	3	-7	1.8	30%
47	CC1CCN(C(C)C(=O)Nc2ccccc2-c2ccccc2)CC1 (stereo not drawn)	1%	6	-10	-34	-4.3	-4%
48	COc1cccc(/C=N/NC(=O)c2[nH]c(C)c(C(=O)N/N=C/c3cccc(OC)c3)c2C)c1	-17%	?	-68*	7	-0.5	-6%[15.4 µM]
49	COc1ccc(C(=O)NC(C(=O)NCc2ccccc2OC)C(C)C)cc1 (stereo not drawn)	2%	5	0	-1	-3.3	-10%
50	Cc1ccc(CNC(=O)CN2C(=O)COc3ccc(S(=O)(=O)N4CCCCC4)cc32)o1	-11%	-8	-1	-10	8.5	13%
51	O=C(CCCc1nc(-c2ccccc2Cl)no1)N1CCOCC1	8%	.	-5	-10	-4.8	-34%[inhibitor]
52	CCC1(C)Cc2c(sc3nc(NC)n(C)c(=O)c23)CO1 (stereo not drawn)	5%	-16	-20	0	-2.0	8%
53	O=C(C1CC(=O)N(c2ccc(F)cc2)C1)N1CCN(c2ccccc2)CC1 (stereo not drawn)	8%	-1	-9	-19	-3.6	-15%[15.4 µM]
54	COc1ccc(N2CCN(C(CNC(=O)c3ccc4c(c3)OCO4)c3ccco3)CC2)cc1 (stereo not drawn)	-2%	-10	-17	-7	3.9	11%[15.4 µM]
55	CC(C)N(CC#CCC(O)(c1ccccc1)c1ccccc1)C(C)C	15%	-5	6	-6	-4.0	31%
56	COC(=O)CCN(C(=O)c1cc(OC)c(OC)c(OC)c1)c1ccccn1	0%	11	8	15	1.0	0%
57	O=C(N=C1SC2CS(=O)(=O)CC2N1c1ccccc1)C1CC1 (stereo not drawn)	7%	.	2	-5	-0.9	5%
58	CCCCCn1c2nc3ccccc3nc2c2c(=O)n(CC(C)C)cnc21	10%	2	0	-11	-1.2	-57%[inhibitor]
59	Cc1csc(CN(C)C(=O)c2cn(Cc3cccc4ccccc34)nn2)n1	-2%	-3	-8	-16	-2.9	0%[15.4 µM]
60	CC(C)NCC(O)(c1ccc(Cl)cc1)c1ccc(Cl)cc1	7%	7	0	-11	-1.2	26%
61	O=C(O)Cn1ccc2ccccc21	5%	7	7	-4	-0.4	27%

Record cards (already shown).
Profile of CCSc1nc2c(cnn2-c2ccc(C)c(C)c2)c(=O)[nH]1 → gsp antag = 5%; CtBP-E1A blk = 2; Six1-Eya2 blk = 1; D2 PAM = -3; D2 ag = -4.6; gsp ag = -36%[inhibitor]
Profile of CC1(C)Oc2ccc(NC(=O)C3COc4ccccc4O3)cc2O1 (stereo not drawn) → gsp antag = -8%; CtBP-E1A blk = -18; Six1-Eya2 blk = -15; D2 PAM = 11; D2 ag = -2.4; gsp ag = -57%
Profile of Cc1cc(-c2nnc(SCC(=O)Nc3ccccc3C(F)(F)F)o2)c(C)n1-c1ccccc1 → gsp antag = 4%; CtBP-E1A blk = 1; Six1-Eya2 blk = -2; D2 PAM = -4; D2 ag = -1.2; gsp ag = -42%[inhibitor]
